# FPR binding = FPR binders displacing fluorescent formyl peptide, primary screen, U937-FPR cells, fMLFK-FITC, flow cytometry (AID 362). inhibition, %. U937-FPR cells, fMLFK-FITC displacement, flow cytometry; stronger effect = higher value; test concentration not given here; most inactive calls were filed without a number and no value below 0 was filed. actives 1% (n = 4,300);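 active = inhibition of labelled peptide binding to the formyl peptide receptor of at least 65%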;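 note: plate controls were buffer control wells for no effect and unlabeled fMLFF blocking peptide for full effect; higher means less cell fluorescence so more probe displaced; part of the set was picked by virtual screening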
# * marks the source's active call; other numbers are inactive results; i = inactive. Some of the compounds tested; rates above refer to the full screens.
SMILES,FPR binding
COCCCNC(=O)CSc1nc2cc3c(cc2c(=O)n1CCCCCC(=O)NCc1ccc(OC)cc1)OCO3,i
O=C(O)c1ccc([N+](=O)[O-])c2c1NC(C1CC=CCC1)C1CC=CC21 (stereo not given),27
CCCCOC(=O)C1=C(C)N(C)C(=O)NC1c1cc2c(cc1Br)OCO2 (stereo not given),i
CCOc1cc2c(C(=O)N3CCN(c4ccccn4)CC3)cn(CC(C)C)c(=O)c2cc1OCC,4
CC1(C)CC(=O)C2=C(C1)OC(N)=C(C#N)C2c1ccc(OC(=O)c2ccccc2Cl)cc1 (stereo not given),i
CCSCCOC(=O)C1=C(C)NC2=C(C(=O)C(C(=O)OC)C(C)C2)C1c1ccc(C(F)(F)F)cc1 (stereo not given),11
CC(=O)Nc1ccc(C2C(C#N)=C(N)OC3=C2C(=O)CC(C)(C)C3)cc1 (stereo not given),i
CCCCOC(=O)C1=C(C)NC(=O)NC1c1ccc(OC)c(OC)c1 (stereo not given),1
COc1ccc(Oc2c(C(F)(F)F)oc3c(CN4CCN(C)CC4)c(O)ccc3c2=O)cc1,4
CCOc1ccc(C2C3=C(CC(C)(C)CC3=O)Nc3ncnn32)cc1OC (stereo not given),i
COC(=O)C1C(=O)C2=C(CC1C)NC(C)=C(C(=O)OC1CCCC1)C2c1cccc(OC)c1OC (stereo not given),6
CCOC(=O)C1=C(C)NC2=C(C(=O)C(C(=O)OC)C(C)C2)C1c1cc(OC)c(O)c(OC)c1 (stereo not given),4
CCOC(=O)C1CCC(CN(Cc2ccccc2C)S(=O)(=O)c2cccc([N+](=O)[O-])c2)CC1 (stereo not given),i
O=C(O)C1CCC(Cn2c(SCc3cc(=O)n4ccccc4n3)nc3ccsc3c2=O)CC1 (stereo not given),i
CCOC(=O)C1=C(c2ccccc2)OC(N)=C(C#N)C1CC(C)C (stereo not given),i
CCOc1cc2c(cc1OCC)C1C(C(=O)N3CCCCC3)c3ccccc3C(=O)N1CC2 (stereo not given),i
Cc1ccc(CNC(=O)C2CCN(S(=O)(=O)N3CC(C)CC(C)C3)CC2)cc1 (stereo not given),i
CCOC(=O)c1c(NC(C)=O)sc2c1CCCC2O (stereo not given),i
Cc1ccc(CCNC(=O)C2CCC(CNS(=O)(=O)c3c(C)cc(C)cc3C)CC2)cc1 (stereo not given),15
CC(C)Cn1cc(C(=O)N2CCC(N3CCCCC3)CC2)c2c3ccccc3n(C)c2c1=O,i
CCSc1nc2c(c(=O)n1C1CCOC(C)(C)C1)C1(CCCC1)Cc1ccccc1-2 (stereo not given),i
CCCCCCCn1c(CN2CC(C)CC(C)C2)nc2c1c(=O)n(C)c(=O)n2C (stereo not given),i
CCOC(=O)C(NS(=O)(=O)c1ccc([N+](=O)[O-])cc1)C(C)CC (stereo not given),i
COc1ccc(Cl)cc1NC(=O)CSc1c2c(nc3ccccc13)CCCC2,i
O=C1NC(c2ccc(-c3ccccc3[N+](=O)[O-])o2)C(C(=O)c2ccccc2)C(O)(C(F)(F)F)N1 (stereo not given),i

# Taken from above (3 entries):
SMILES,FPR binding
CCOC(=O)C(NS(=O)(=O)c1ccc([N+](=O)[O-])cc1)C(C)CC (stereo not given),i
COc1ccc(Cl)cc1NC(=O)CSc1c2c(nc3ccccc13)CCCC2,i
O=C1NC(c2ccc(-c3ccccc3[N+](=O)[O-])o2)C(C(=O)c2ccccc2)C(O)(C(F)(F)F)N1 (stereo not given),i

# The listing continues.
SMILES,FPR binding
COc1ccc(C2NC(=O)NC(C)=C2C(=O)OC2CCCCC2)c(OC)c1 (stereo not given),8
CCOC(=O)C1CCC(CN(Cc2ccccc2)S(=O)(=O)c2ccc([N+](=O)[O-])cc2)CC1 (stereo not given),i
O=C(NC1CCN(Cc2ccccc2)CC1)C1CCC(CNS(=O)(=O)c2ccc(Br)s2)CC1 (stereo not given),8
CCSCCOC(=O)C1=C(C)NC2=C(C(=O)C(C(=O)OC)C(C)C2)C1c1ccccc1Cl (stereo not given),i
CCc1ccc(NC(=O)CSc2nc3ccccc3c(=O)n2CC2CCC(C(=O)NCC3CCCO3)CC2)cc1 (stereo not given),6
CCCc1cc(=O)[nH]c(SCC(=O)Nc2ccc(S(=O)(=O)Nc3nccc(C)n3)cc2)n1,11
CCCOC(=O)C1=C(C)NC2=C(C(=O)C(C(=O)OC)C(C)C2)C1c1ccc(F)cc1 (stereo not given),10
COC(=O)C(O)(c1cc(C(C)C)c(O)cc1C)C(F)(F)F (stereo not given),10
O=C(Nc1ccc(Cl)cc1C(F)(F)F)c1cc(S(=O)(=O)NCc2ccco2)ccc1F,0
CCN(CC)Cc1c(O)ccc2c(=O)c(Oc3cc(C)cc(C)c3)c(C(F)(F)F)oc12,i
CCCOc1ccc(C2NC(=O)NC(C)=C2C(=O)OCC(C)C)cc1OC (stereo not given),i
COc1ccc(OC)c(NC(=O)[C@H]2CC=CC[C@H]2C(=O)O)c1,13
CCCCn1c(CN2CCN(c3cccc(Cl)c3)CC2)nc2c1c(=O)n(C)c(=O)n2C,i
COc1ccc2c(c1)-c1c(ssc1=S)C(C)(C)N2C(=O)CCC1CCCCC1,i
COC(=O)c1c(-c2ccc(C)c(C)c2)csc1NC(=O)C1C2CCC(C2)C1C(=O)O (stereo not given),50
COC(=O)c1c(-c2cccc(C)c2)csc1NC(=O)C1CCCCC1C(=O)O (stereo not given),69*
C=C(C)Cn1c(SCC(=O)c2ccccc2)nc2c(c1=O)C1(CCCC1)Cc1ccccc1-2,i
C=CCc1cc(C(=O)N2CCCC2)ccc1O,23
COC(=O)C1=C(C)N(CC(C)C)C(=O)C1,i
CSc1ccc(C2C3=C(CC(C)(C)CC3=O)Nc3ncnn32)cc1 (stereo not given),i
CCC(C)C(NC(=O)OC(C)(C)C)C(=O)NC(CCC(=O)OCc1ccccc1)C(N)=O (stereo not given),i
CCCCN(CC)C(=O)c1sc2nc(C)c(C(=O)Nc3ccc(C)cc3C)c(-c3ccco3)c2c1N,i
CCOc1ccc(C(C)=O)cc1N1C(=O)C2C3C=CC(C3=C(C)C)C2C1=O (stereo not given),i
CC(C)C1=CC23CCC4C(C)(C(=O)O)CCCC4(C)C2CC1C1C(=O)N(c2ccccc2)C(=O)C13 (stereo not given),1
Cc1cccc(C(=O)NC2(C(F)(F)F)C(=O)Nc3c2c(=O)[nH]c(=O)n3-c2ccc(Cl)cc2)c1 (stereo not given),22

# Fetched one by one from above:
SMILES,FPR binding
COc1ccc2c(c1)-c1c(ssc1=S)C(C)(C)N2C(=O)CCC1CCCCC1,i
CCCCn1c(CN2CCN(c3cccc(Cl)c3)CC2)nc2c1c(=O)n(C)c(=O)n2C,i
CCN(CC)Cc1c(O)ccc2c(=O)c(Oc3cc(C)cc(C)c3)c(C(F)(F)F)oc12,i
O=C(Nc1ccc(Cl)cc1C(F)(F)F)c1cc(S(=O)(=O)NCc2ccco2)ccc1F,0
CCOC(=O)C1CCC(CN(Cc2ccccc2)S(=O)(=O)c2ccc([N+](=O)[O-])cc2)CC1 (stereo not given),i

# (next part)
SMILES,FPR binding
CCCCSCCCNC(=O)C1CCC(CNS(=O)(=O)c2c(C)cc(C)cc2C)CC1 (stereo not given),0
COc1cc(Nc2c3c(nc4ccccc24)CCCC3)cc(OC)c1OC,i
O=C(Oc1cccc(N2C(=O)C3C4CCC(C4)C3C2=O)c1)c1ccc(Br)cc1 (stereo not given),i
CCCc1cc2c(=O)c(-c3ccc4c(c3)OCCCO4)coc2cc1OC(C)=O,i
CC(=O)N1CCCc2cc(S(=O)(=O)NC(C(=O)NCCc3ccccc3)C(C)C)ccc21 (stereo not given),i
CCOC(=O)C1=C(C)C2C3C(=O)N(c4ccccc4C)C(=O)C3C1(C)C1C(=O)N(c3ccccc3C)C(=O)C21 (stereo not given),i
O=C1C2C(C(=O)N1c1ccc3c(c1)OCO3)C1C=CC2C12CC2 (stereo not given),3
CCOC(=O)C(C#N)C1(c2ccc(OC)cc2)CCOC(C)(C)C1 (stereo not given),3
COc1cc(C2NC(=O)NC(C)=C2C(=O)OC2CCCC(C)C2)ccc1O (stereo not given),i
COc1ccc(C2NC(=O)NC(C)=C2C(=O)OCC(F)(F)C(F)(F)F)cc1 (stereo not given),i
CCNC(=O)c1cc2c(=O)n3cc(C)ccc3nc2n(C2CCCC2)c1=N,i
CCOc1ccccc1C1C(C(=O)OC2CCCCC2)=C(C)NC2=C1C(=O)C(C(=O)OC)C(C)C2 (stereo not given),2
Cc1ccc(S(=O)(=O)c2ccc(C)c(S(=O)(=O)N3CCCCCC3)c2)cc1S(=O)(=O)N1CCCCCC1,i
CC1=C(C(=O)OCC(C)C)C(c2cccc(O)c2)C2=C(CC(c3cccs3)CC2=O)N1 (stereo not given),9
CCc1ccc(Oc2c(C(F)(F)F)oc3c(CN(C)C)c(O)ccc3c2=O)cc1,10
Cc1nc(NC(CC(C)C)C(=O)O)c2nc(C)oc2n1 (stereo not given),i
O=C(NC1(C(F)(F)F)C(=O)Nc2c1c(=O)[nH]c(=O)n2-c1ccc(F)cc1)c1ccncc1 (stereo not given),10
Cc1cccc(N2CCN(C(=O)c3cn(C4CCCC4)c(=O)c4c3c3ccccc3n4C)CC2)c1C,i
c1ccc(CC(CCNCc2ccc3c(c2)OCO3)c2ccc3c(c2)OCO3)cc1 (stereo not given),17
CCCC1=C(C(=O)OCC)C(c2cc(Br)c(O)c(OC)c2)NC(=O)N1 (stereo not given),6
CCCC(CCC(=O)OC)(C(=O)OCC)c1csc(N)n1 (stereo not given),i
COc1cc(/C=C2/C(C)=C(C#N)c3nc(N)c(C#N)c(C)c32)ccc1OCc1ccc(F)cc1,5
COc1ccc(Oc2c(C(F)(F)F)oc3c(CN(CC(C)C)CC(C)C)c(O)ccc3c2=O)cc1,i
CC(=O)Oc1ccc2c(=O)c(Oc3ccccc3)c(C(F)(F)F)oc2c1C,21
CCCc1cc(=O)[nH]c(SCC(=O)Nc2cc(OC)ccc2OC)n1,37
# (more compounds)
SMILES,FPR binding
COc1ccc(NC(=O)C(NS(=O)(=O)c2ccc3c(c2)CCN3C(C)=O)C(C)C)cc1OC (stereo not given),i
COc1cc(OC)cc(C2C3=C(CC(C)(C)CC3=O)Nc3nc4ccccc4n32)c1 (stereo not given),i
CCSCCOC(=O)C1=C(C)NC2=C(C(=O)C(C(=O)OC)C(C)C2)C1c1ccc(C(=O)OC)cc1 (stereo not given),20
CC1CCCCC1NC(=O)c1cc(=O)[nH]c2ccc(S(=O)(=O)N3CCCCC3C)cc12 (stereo not given),i
CC1CCCN(C(=O)c2cc(N3C(=O)C4C5CCC(C5)C4C3=O)ccc2Cl)C1 (stereo not given),i
CCC(C)(C(=O)NC1CCCCC1)N(CC1CCCO1)C(=O)C1CCC(=O)N1 (stereo not given),i
O=C(O)C1C2CCC(C2)C1C(=O)Nc1nc(-c2ccc(F)cc2F)cs1 (stereo not given),i
CC1(C)CC(=O)C2=C(C1)Nc1ncnn1C2c1ccc([N+](=O)[O-])cc1 (stereo not given),20
CCS(=O)(=O)c1c(S(=O)(=O)CC)c2cc(C(C)(C)C)ccn2c1C(=O)c1ccc(F)cc1,i
COc1cc(C2C(C(=O)OCC(C)C)=C(C)NC3=C2C(=O)CC(c2cccs2)C3)cc([N+](=O)[O-])c1O (stereo not given),0
O=C1CCC(C(=O)N(c2ccccc2)C2(C(=O)NC3CCCCC3)CCCCC2)N1 (stereo not given),i
CCOCCOC(=O)C1=C(C)NC2=C(C(=O)C(C(=O)OC)C(C)C2)C1c1ccc(N(C)C)cc1 (stereo not given),32
COc1cc(C(=O)Nc2c(C(C)C)cccc2C(C)C)c(Br)c(OC)c1OC,i
COc1ccc(N2C(=O)CSC23CCC(C(C)(C)C)CC3)cc1 (stereo not given),i
CCN1CCN(CCCNC(=O)Cn2cnc3sc(C)c(S(=O)(=O)N4CCC(C)CC4)c3c2=O)CC1,i
OC(CC#CCN1CCCCC1)(c1ccccc1)C1CCCC1 (stereo not given),i
CCOC(=O)C1=C(C)NC2=C(C(=O)CC(C)(C)C2)C1c1cccc(C(F)(F)F)c1 (stereo not given),11
CCOC(=O)c1c(NC(=O)C2C3C=CC(C3)C2C(=O)O)sc2c1CCCC2 (stereo not given),i
COC(=O)C1C(=O)C2=C(CC1C)NC(C)=C(C(=O)OC1CCCCC1)C2c1ccc(OC)c(OC)c1 (stereo not given),28
CC(=O)N1CCCc2cc(S(=O)(=O)NC(C(=O)Nc3cc(Cl)ccc3C)C(C)C)ccc21 (stereo not given),i
CC1CCc2c(sc(NC(=O)C3CCCCC3C(=O)O)c2C(=O)OC(C)C)C1 (stereo not given),3
CCOC(=O)CNC(=O)Cn1cnc2sc(C)c(S(=O)(=O)N3CCC(C)CC3)c2c1=O,i

# Entries listed so far printed as active in FPR binding.
SMILES,FPR binding
COC(=O)c1c(-c2cccc(C)c2)csc1NC(=O)C1CCCCC1C(=O)O (stereo not given),69*

# Shown as tab-separated lines: part of the list above.
Molecule	FPR binding
CC1CCCCC1NC(=O)c1cc(=O)[nH]c2ccc(S(=O)(=O)N3CCCCC3C)cc12 (stereo not given)	i
CC1CCCN(C(=O)c2cc(N3C(=O)C4C5CCC(C5)C4C3=O)ccc2Cl)C1 (stereo not given)	i
CCC(C)(C(=O)NC1CCCCC1)N(CC1CCCO1)C(=O)C1CCC(=O)N1 (stereo not given)	i
O=C(O)C1C2CCC(C2)C1C(=O)Nc1nc(-c2ccc(F)cc2F)cs1 (stereo not given)	i
